# High-throughput results: PubChem BioAssay, several laboratories
# RecA intein inh: inhibitors of M. tuberculosis RecA intein splicing. cell-free RecA intein splicing, fluorescence. AID 2221. P9WHJ3. inhibition, %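 (about 9 µM by stock and volumes)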. hit rate 0.75% among 290,000; in the data active = inhibition above about 30%; inconclusive = no clear call, values can overlap the other calls;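 also: 0% = vehicle wells and 100% = reference inhibitor control wells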
# Target sequence (P9WHJ3 whole entry, looked up): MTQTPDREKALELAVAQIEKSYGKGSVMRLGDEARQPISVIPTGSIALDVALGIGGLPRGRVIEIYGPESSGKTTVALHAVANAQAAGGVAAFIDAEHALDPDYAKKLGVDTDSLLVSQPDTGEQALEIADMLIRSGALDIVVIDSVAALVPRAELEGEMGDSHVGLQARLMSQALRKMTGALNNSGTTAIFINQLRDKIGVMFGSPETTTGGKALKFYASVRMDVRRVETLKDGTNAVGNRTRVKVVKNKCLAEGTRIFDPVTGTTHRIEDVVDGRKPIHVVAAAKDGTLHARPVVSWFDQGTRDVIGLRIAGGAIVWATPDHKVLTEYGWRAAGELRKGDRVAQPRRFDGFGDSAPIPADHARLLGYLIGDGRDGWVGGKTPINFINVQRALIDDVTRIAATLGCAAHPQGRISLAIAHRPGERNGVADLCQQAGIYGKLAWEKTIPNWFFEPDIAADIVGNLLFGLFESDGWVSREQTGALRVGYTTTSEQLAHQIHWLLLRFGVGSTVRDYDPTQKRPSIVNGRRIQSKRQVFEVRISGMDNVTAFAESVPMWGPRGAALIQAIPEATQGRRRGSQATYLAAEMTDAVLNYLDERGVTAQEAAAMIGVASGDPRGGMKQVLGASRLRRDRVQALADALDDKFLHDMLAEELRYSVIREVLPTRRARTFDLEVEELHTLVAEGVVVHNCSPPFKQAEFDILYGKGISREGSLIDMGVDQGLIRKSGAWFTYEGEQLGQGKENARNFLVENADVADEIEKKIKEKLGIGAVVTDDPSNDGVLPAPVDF
# Mtb bLac sens: beta-lactam sensitization of Mtb H37Rv; M. tuberculosis H37Rv growth with meropenem, percent inhibition; hits of this screen are not shown here; inhibition, % at 25 µM; hit rate 0.27% among 330,000; AID 434955;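 active = about 74% or more and at least 40 points above the plate without the antibiotic, then above 30% in a dose series; inconclusive = first-round hits that could not be retested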;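 also: growth measured after seven days incubation then overnight dye step; 0% = bacteria only wells and 100% = bacteria with antibiotic; twin plates without the antibiotic show which effects depend on it; some results filed as inactive read as strong as hits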
# Arbovirus anti: arbovirus infection inhibition. arbovirus infection cell-based antiviral screen. inhibition, % at 10 µM. hit rate 0.37% among 200,000;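 active = inhibition from about 30%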;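 also: bluetongue infection of BSR cells; cell survival read as ATP light after 72 h; 0% = infected wells without compound and 100% = uninfected wells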
# Mtb H37Rv: M. tuberculosis H37Rv growth inhibitors, H37Rv strain (AID 1626). M. tuberculosis H37Rv growth inhibition; higher % means a stronger effect. inhibition, % at 10 µM; hits with a dose series show IC50 in µM. hit rate 0.95% among 220,000;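 active = confirmed in a dose series; inconclusive = inhibition above 80% but not taken into the dose series; inactive = below 80% or under 30% at every dose of the series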;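 also: bacteria incubated seven days before Alamar blue readout; 0% = bacteria only wells and 100% = bacteria with antibiotic wells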
# YopH PTP inh: YopH (Yersinia) phosphatase inhibition. fluorescence Ex485/Em525. inhibition, %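 (about 10 µM by stock and volumes)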. hit rate 0.16% among 140,000;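 active = inhibition of 50% or more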;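 also: controls were vehicle for no effect and minimum signal wells for full effect; inactives centre near -20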
# Arbovirus anti repeat: further read-out of Arbovirus anti, marked with its call; inhibition, %; measured here: 10K subset replicate screen; many hits read low in the repeat;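 first of two repeat runs on a subset; 0% = infected and 100% = uninfected wells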
# The depositor's hits bear a star; u = inconclusive; x = no result given. The list is partial; the hit share may differ from the screen's.
SMILES,RecA intein inh,Mtb bLac sens,Arbovirus anti,Mtb H37Rv,YopH PTP inh,others
COc1ccccc1NC(=O)CCSc1nnc(-c2ccco2)o1,-0.6,5,6,-4%,x,
CCCCNC(=O)CSc1nc2cc3c(cc2c(=O)n1CCC(=O)NCCc1ccc(OC)c(OC)c1)OCO3,-3.8,17,1,7%,x,
CCn1c(SCC(=O)Nc2oc(-c3ccccc3)c(-c3ccccc3)c2C#N)nnc1-c1cc(OC)cc(OC)c1,1.5,5,-25,1%,-21,
O=C(CC1OC(=O)c2ccccc21)NCC1COc2ccccc2O1 (stereo unspecified),-2.0,-11,x,x,x,
O=c1n(-c2ccccc2)c(=O)n2n1CCC2,0.9,-7,0,0%,-8,
O=C(O)[C@@H]1Cc2ccccc2N1,4.2,-1,x,-6%,x,
CC(=O)N1N=C(c2cccc(Br)c2)OC12CCCC2,1.5,-4,3,-8%,x,
CC(=O)Nc1sc2c(c1C(=O)N1CCOCC1)CCCCC2,-0.6,-7,8,-15%,-24,
O=C(O)CCC(=O)c1ccc2c(c1)OCCO2,x,-7,2,-9%,x,Arbovirus anti repeat=2
Cn1nnc2cc(NC(=O)N3CCN(c4ccccn4)CC3)ccc21,-2.1,-1,-6,0%,-25,
COCCCNC(=O)c1ccc(N2CCCC2)c(NS(=O)(=O)c2ccc(C)cc2)c1,2.8,-3,-1,2%,-39,
CCCCCCCCCCSc1n[nH]c(NC(C)=O)n1,0.2,6,-5,7%,-4,
Cc1cccc(NC(=O)C(=O)NCc2ccc3c(c2)OCO3)c1C,-2.7,-6,-3,-3%,x,
CC(=O)N(C)c1ccc(N=Cc2c(O)ccc3ccccc23)cc1,0.0,4,x,x,x,
Cc1ccc(CC(NC(=O)c2ccccc2)C(=O)NCC(=O)O)cc1 (stereo unspecified),-0.4,x,1,-7%,-20,
CN(C)c1nc2c(c(=O)[nH]c(=O)n2C)n1Cc1ccccc1Br,-1.3,-7,2,-1%,-35,
COC(=O)C1=C(C)N(CC2CCCO2)C(=O)C1 (stereo unspecified),-1.7,u,-1,-1%,-48,
C=CCNc1cnn(-c2ccc(C)cc2)c(=O)c1Sc1ccc(C)cc1,2.9,2,1,7%,x,
COC(=O)Nc1nnc(-c2ccccc2Cl)s1,2.0,-17,-4,8%,-47,
Cc1ccc(C)c(S(=O)(=O)N2CCCC2CNC(=O)C(=O)NCCc2ccccc2)c1 (stereo unspecified),0.5,3,x,x,x,
CCC(=O)NS(=O)(=O)c1ccc(N=NN2CCCCC2)cc1,-1.9,-9,5,-4%,-18,
CCN(CC)S(=O)(=O)c1cccc(NC(=O)COc2ccc(C#N)cc2OC)c1,1.0,4,3,-3%,-24,
CN(C1CCCCC1)S(=O)(=O)c1ccc(NC(=S)NC(=O)c2cccs2)cc1,8.3,-1,-8,3%,-34,
CCCOc1ccc(CCC(=O)N/N=C/c2ccc([N+](=O)[O-])o2)cc1,16,99,x,u,x,
O=C(O)C1C2CCC(C2)C1C(=O)NCCC1=CCCCC1 (stereo unspecified),-3.4,8,-1,-9%,-26,
SMILES,RecA intein inh,Mtb bLac sens,Arbovirus anti,Mtb H37Rv,YopH PTP inh,others
O=C(c1cc2c(s1)-c1ccccc1OC2)N1CCN(c2ccccc2)CC1,2.4,-5,-2,-3%,-28,
CSCCC(NC(=O)/C(=C\c1ccco1)NC(=O)c1ccco1)C(=O)O (stereo unspecified),2.5,0,x,x,x,
COc1ccccc1C(=O)Nc1cc(C)c(OCC(=O)N2CCOCC2)c(C)c1,0.5,1,x,x,x,
COc1cccc(/C=C2\CC(C)Cc3c2nc2ccccc2c3C(=O)O)c1OC (stereo unspecified),-2.4,-1,x,x,x,
OCc1nc2ccccc2n1/N=C/c1cccs1,-1.0,-8,x,2%,x,
COc1ccc(NC(=O)C(NC(=O)OC(C)(C)C)C(C)OCc2ccccc2)cc1 (stereo unspecified),-0.1,1,-11,-2%,1,
O=C(CN1C(=O)NC(c2ccccc2)(c2ccccc2)C1=O)Nc1ccc2[nH]c(=O)[nH]c2c1,2.0,-9,x,0%,x,
COc1ccc(Cn2nc(C(=O)O)c3ccccc3c2=O)cc1F,-1.6,1,x,x,x,
Cc1cccc(OCC(=O)N2CCN(Cc3ccc4c(c3)OCO4)CC2)c1,1.6,-7,-10,-7%,x,
COc1ccc(NC(=O)C2C3C=CC(C3)C2C(=O)NCc2ccccn2)c(OC)c1 (stereo unspecified),x,3,-2,-4%,36,
CCOc1ccc(N(CC(=O)N2CCOCC2)S(=O)(=O)c2ccc(Cl)cc2)cc1,2.0,-10,x,x,x,
CCOc1nc(C)cc(COC)c1C(N)=O,-0.7,-7,-1,2%,x,
O=C(O)CC(NC(=O)C(c1ccccc1)c1ccccc1)c1cccc([N+](=O)[O-])c1 (stereo unspecified),0.1,-12,x,-16%,x,
O=C(CSc1nc2[nH]ncc2c(=O)n1-c1ccccc1Br)NCc1ccccc1Cl,5.3,-3,20,6%,x,
O=C(COC(=O)C1(c2ccccc2F)CCCC1)Nc1ncc(C(F)(F)F)cc1Cl,7.4,-4,14,1%,-6,
CCn1cc(C(=O)c2cccs2)c2ccccc21,2.4,62,4,7%,-10,
Cc1ccc(C)c(N2CCN(C(=O)c3ccc4nsnc4c3)CC2)c1,1.3,5,x,x,x,
COc1ccc(NC(=O)Cn2cc(C(=O)c3ccco3)c3ccccc32)cc1,x,8,-17,-6%,-32,
C/C(=N\OC(=O)c1ccccc1F)c1nccs1,-0.8,-10,9,2%,-16,
Cc1csc2c(N3CCN(C(=O)NC(C)(C)C)CC3)ncnc12,1.7,0,x,-10%,x,
Cc1ccc(-n2ncc3c(=O)[nH]c(SCC(=O)N4CCC(C)CC4)nc32)cc1C,x,x,-1,5%,-32,Arbovirus anti repeat=0
CC(C)(CO)CNC(=O)c1ccc(OC2CCN(C(=O)C3CC3)CC2)cc1,-0.5,-11,4,-2%,x,
O=C(NC(Cc1c[nH]c2ccccc12)C(=O)O)c1ccco1 (stereo unspecified),1.0,2,4,-3%,-26,
COC(=O)c1ccc(NC(=O)NC2CCCCC2)cc1,-3.9,-9,5,-3%,-25,
O=c1[nH]c2ccccc2c2cn(-c3ccccc3)nc12,1.4,14,x,x,x,
SMILES,RecA intein inh,Mtb bLac sens,Arbovirus anti,Mtb H37Rv,YopH PTP inh,others
Cc1cc(=O)n2[nH]c(-c3cccc(Cl)c3)cc2n1,2.6,6,x,x,x,
O=c1cc(CSc2nnc(-c3ccco3)o2)c2ccccc2[nH]1,0.3,5,0,-6%,-10,
COc1ccc(S(=O)(=O)N(C)c2ccc(C(=O)NCCC(C)C)cc2)cc1,3.1,12,-1,7%,-5,
CCCn1c(SCC(=O)Nc2cccc(Cl)c2Cl)n[nH]c1=O,-2.9,-2,14,10%,x,
Cc1cccc(C(=O)NNC(=O)c2c(O)c3ccccc3n(C)c2=O)c1,1.5,100,x,x,x,
Cc1cccc(C)c1NC(=O)CSc1nnc(C2CCCCC2)o1,2.2,3,x,x,x,
CCOC(=O)c1cc(-c2ccc(F)cc2)n(CC(=O)NCc2ccccn2)c1C,-1.3,5,3,4%,x,
CN1CCN(C(=S)Nc2ccc([N+](=O)[O-])cc2)CC1,-0.7,-8,0,x,-22,
CCOc1cc(S(=O)(=O)N2CCCCC2)ccc1F,0.9,5,-4,-5%,-15,
O=C(NCC(c1ccco1)N1CCc2ccccc21)C(=O)Nc1ccccc1 (stereo unspecified),3.6,-8,x,x,x,
CSc1ccc(/C=C2/C(=N)N3N=C(CC(=O)N4CCCC4)SC3=NC2=O)cc1,1.1,-8,x,x,x,
O=C(NCC1CCCO1)C(=O)N/N=C\c1ccc2c(c1)OCO2 (stereo unspecified),-1.8,-2,x,x,x,
CCCCOC(=O)n1c(=S)oc2cc(Cl)ccc21,4.5,-9,10,7%,9,
O=C(Cn1cc[n+](CC(=O)c2ccccc2)c1)c1ccccc1,0.8,0,-3,1%,-23,
Cc1cc(NC(=O)C(C)C)ncc1NC(=O)CCc1ccccc1,-1.2,-11,6,2%,-30,
COc1ccccc1N(CC(O)Cn1c(C)nc2ccccc21)S(=O)(=O)c1ccccc1 (stereo unspecified),1.1,0,8,12%,9,
CCOC(=O)c1sc(NC(=O)CCN2C(=O)c3ccccc3C2=O)c(C(=O)OCC)c1C,-0.9,0,-4,-2%,-5,
CCCN1CCC(=O)N([C@H](CSc2ccc(C)cc2)CC(C)C)CC1,3.9,x,x,-2%,x,
COc1cccc(-n2ccnc2SCC(=O)Nc2nccs2)c1,1.7,1,-5,-3%,-39,
CC1=C(C#N)C(c2ccc(O)cc2)C2=C(CCCC2=O)N1 (stereo unspecified),-12,-7,-7,3%,x,
O=C(COc1ccc2ccc(=O)oc2c1)NC1CCCC1,0.6,5,x,x,x,
COc1ccc(NC(=O)C(C)N2c3cccc4cccc(c34)S2(=O)=O)cc1OC (stereo unspecified),4.4,2,11,-6%,5,
CC1CCCN(S(=O)(=O)c2ccc(C(=O)Nc3nnc(-c4ccccc4Cl)o3)cc2)C1 (stereo unspecified),0.2,38,-9,u,-78,
O=C(NN1C(=O)C2C3C=CC(C4CC34)C2C1=O)c1ccc(Cl)c(Cl)c1 (stereo unspecified),-1.0,-13,3,-3%,-14,
CC(C)N(CC(N)=O)c1ncnc2sc(-c3ccccc3)cc12,-1.7,1,x,x,x,
SMILES,RecA intein inh,Mtb bLac sens,Arbovirus anti,Mtb H37Rv,YopH PTP inh,others
NC(=O)COc1c(-c2ccccc2)oc2ccccc2c1=O,-0.5,0,-5,3%,-6,
CC(=O)c1ccc(N=C2SCCCN2C(=O)C2CCCC2)cc1,2.1,1,5,1%,x,
O=C(O)CCC(=O)NNC(=O)CCC1CCCCC1,-1.0,2,8,10%,-4,
COc1ccccc1NC(=O)c1cnc(Nc2ccccc2OC)c2ccccc12,-8.7,x,-12,18%,-3,
O=C(C1=C[C@H](C2CCCCC2)C[C@H](OCc2ccc(CO)cc2)O1)N1CCN(Cc2ccc3c(c2)OCO3)CC1,7.1,-2,-18,3%,x,
C/C(=N/N=C1/NC(=O)CC(C(=O)O)S1)c1ccccc1 (stereo unspecified),-0.2,-4,-1,-2%,-24,
CC(C)OC(=O)c1c2nc3ccccc3nc2n2c1[nH]c(=O)c1ccccc12,-24,99,-16,x,-10,
Cc1cc(NC(=O)CCC(=O)N(c2ccc(F)cc2)C2(C(=O)NC3CCCCC3)CCCC2)no1,-0.2,-2,-18,x,-8,
COC(=O)c1cccc(-c2ccc(/C=N/N3C(=O)C4C5C=CC(C6CC56)C4C3=O)o2)c1 (stereo unspecified),-1.1,31,-4,-14%,x,
CN(C)C(CNC(=O)c1ccc(S(=O)(=O)Nc2ccccc2F)cc1)c1ccccc1 (stereo unspecified),2.2,3,x,x,x,

# 16 neighbouring compounds from above:
SMILES,RecA intein inh,Mtb bLac sens,Arbovirus anti,Mtb H37Rv,YopH PTP inh,others
COc1cccc(-n2ccnc2SCC(=O)Nc2nccs2)c1,1.7,1,-5,-3%,-39,
CC1=C(C#N)C(c2ccc(O)cc2)C2=C(CCCC2=O)N1 (stereo unspecified),-12,-7,-7,3%,x,
O=C(COc1ccc2ccc(=O)oc2c1)NC1CCCC1,0.6,5,x,x,x,
COc1ccc(NC(=O)C(C)N2c3cccc4cccc(c34)S2(=O)=O)cc1OC (stereo unspecified),4.4,2,11,-6%,5,
CC1CCCN(S(=O)(=O)c2ccc(C(=O)Nc3nnc(-c4ccccc4Cl)o3)cc2)C1 (stereo unspecified),0.2,38,-9,u,-78,
O=C(NN1C(=O)C2C3C=CC(C4CC34)C2C1=O)c1ccc(Cl)c(Cl)c1 (stereo unspecified),-1.0,-13,3,-3%,-14,
CC(C)N(CC(N)=O)c1ncnc2sc(-c3ccccc3)cc12,-1.7,1,x,x,x,
NC(=O)COc1c(-c2ccccc2)oc2ccccc2c1=O,-0.5,0,-5,3%,-6,
CC(=O)c1ccc(N=C2SCCCN2C(=O)C2CCCC2)cc1,2.1,1,5,1%,x,
O=C(O)CCC(=O)NNC(=O)CCC1CCCCC1,-1.0,2,8,10%,-4,
COc1ccccc1NC(=O)c1cnc(Nc2ccccc2OC)c2ccccc12,-8.7,x,-12,18%,-3,
O=C(C1=C[C@H](C2CCCCC2)C[C@H](OCc2ccc(CO)cc2)O1)N1CCN(Cc2ccc3c(c2)OCO3)CC1,7.1,-2,-18,3%,x,
C/C(=N/N=C1/NC(=O)CC(C(=O)O)S1)c1ccccc1 (stereo unspecified),-0.2,-4,-1,-2%,-24,
CC(C)OC(=O)c1c2nc3ccccc3nc2n2c1[nH]c(=O)c1ccccc12,-24,99,-16,x,-10,
Cc1cc(NC(=O)CCC(=O)N(c2ccc(F)cc2)C2(C(=O)NC3CCCCC3)CCCC2)no1,-0.2,-2,-18,x,-8,
COC(=O)c1cccc(-c2ccc(/C=N/N3C(=O)C4C5C=CC(C6CC56)C4C3=O)o2)c1 (stereo unspecified),-1.1,31,-4,-14%,x,
